rRNA inh HTS: inhibits bacterial ribosomal RNA function over humanized ribosomes; E. coli WT GFP vs humanized-ribosome RFP mutants, fluorescence, 24 h; active compounds read low; DMSO median 0, no signal -100; GFP signal change (wild-type ribosome), % (no concentration beside the values); hit rate 1.6% among 350,000; AID 720706;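 active = significant combined selectivity score with lowered wild-type GFP, culture density cut under 30%, mutant RFP and density less affected; inactive = any of these conditions unmet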; note: one replicate is shown; some compounds called inactive have numbers as strong as hits
rRNA inh HTS OD600: also measured in rRNA inh HTS; calls as there; OD600 change, %; measured here: OD600 growth;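 optical density of the mix in the first replicate; 0 = DMSO median and -100 = no signal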
rRNA inh HTS RFP: second read-out of rRNA inh HTS, no call of its own (marks repeat the call); RFP signal change, %; measured here: RFP humanized mutant strains;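 first replicate; 0 = DMSO median and -100 = no signal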
* marks the source's active call; other numbers are inactive results; & = joins results of further samples. This is a subset; count on the stated rates, not on these rows.

SMILES	rRNA inh HTS	rRNA inh HTS OD600	rRNA inh HTS RFP
O=C(C1CC1)N1C[C@H]2[C@@H](c3ccccc31)[C@@H](CO)N2S(=O)(=O)c1ccccc1	3	9	0.1
O=C(Cc1ccccc1)N1CC(=O)N2[C@H](CO)[C@@H](c3ccc(Br)cc3)[C@@H]2C1	-2	-8	-3.0
CCS(=O)(=O)N1CC2(CN(C(=O)Nc3cccc(F)c3)[C@H](CO)c3c2c2ccc(OC)cc2n3C)C1	-1	-6	8.8
C[C@@H]1CN([C@@H](C)CO)C(=O)c2cccc(NC(=O)c3ccc(-c4nccs4)cc3)c2O[C@H]1CN(C)Cc1ccc(C(F)(F)F)cc1	-5	-3	1.3
COc1ccc2c3c([nH]c2c1)[C@H](CO)N(C(=O)Nc1ccc(F)cc1)CC31CN(C(=O)c2ccccc2F)C1	3	-35	33
N#C[C@H]1[C@@H](c2ccccc2/C=C/c2ccccc2)[C@@H](CO)N1S(=O)(=O)c1cccc(F)c1	1	3	0.1
CCC(=O)N1CC(=O)N2[C@H](CO)[C@H](c3ccc(-c4ccc(C#N)cc4)cc3)[C@@H]2C1	5	-1	0.8
COc1ccc2c3c(n(C)c2c1)[C@H](CO)N(Cc1nccs1)CC31CCN(C(=O)CC2CC2)CC1	-3	-8	0.1
CC(C)C#Cc1ccc([C@H]2[C@H](CO)N3C(=O)CN(C(=O)NC4CCCCC4)C[C@@H]23)cc1	-3	6	0.7
CCC(=O)N[C@H]1C=C[C@H](CC(=O)NCC2CC2)O[C@H]1CO	3	-2	0.8
C/C=C/c1ccc([C@H]2[C@@H](CO)N(CCC)[C@@H]2CN(CC)C(=O)c2ccccn2)cc1	2	3	-0.3
CCNC(=O)[C@H]1[C@H](CO)[C@H]2Cn3c(ccc(C4=CCCCC4)c3=O)[C@H]2N1CC1CC1	-5	-8	2.8
COc1ccccc1C(=O)Nc1ccc2c(c1)C(=O)N(C)C[C@H](OC)[C@H](C)CN(CC1CC1)[C@@H](C)CO2	0	0	0.6
O=S(=O)(Cc1ccccc1)N1CCCCN2[C@H](C1)[C@@H](c1ccc(-c3ccc(F)cc3)cc1)[C@@H]2CO	-8	-38	7.6
COc1ccc(S(=O)(=O)N(C)C[C@@H]2Oc3ccc(NS(=O)(=O)c4cn(C)cn4)cc3C(=O)N([C@H](C)CO)C[C@@H]2C)cc1	-2	-4	-0.2

Quoted from the listing.
`O=S(=O)(Cc1ccccc1)N1CCCCN2[C@H](C1)[C@@H](c1ccc(-c3ccc(F)cc3)cc1)[C@@H]2CO` @ rRNA inh HTS OD600 = -38
`CCC(=O)N[C@H]1C=C[C@H](CC(=O)NCC2CC2)O[C@H]1CO` @ rRNA inh HTS OD600 = -2

Later entries
SMILES	rRNA inh HTS	rRNA inh HTS OD600	rRNA inh HTS RFP
CO[C@H]1CN(C)C(=O)c2ccc(NC(=O)C3CC3)cc2OC[C@@H](C)N(C(=O)c2ccccn2)C[C@@H]1C	3	4	-0.7
C[C@@H]1CN([C@@H](C)CO)C(=O)CCCn2cc(nn2)CO[C@H]1CN(C)Cc1cccc2c1OCCCO2	2	5	-2.2
Cc1cccc(CN(C)C[C@@H]2OCc3cn(nn3)CCCC(=O)N([C@@H](C)CO)C[C@@H]2C)c1	1	2	3.0
C[C@@H]1CN([C@@H](C)CO)C(=O)c2cc(-c3ccc(C#N)cc3)cnc2O[C@@H]1CN(C)Cc1cncnc1	-1	3	0.1
COc1ccc([C@H]2CC=CC[C@H](C)Oc3ccccc3C(=O)N(C)[C@H](C(C)C)C(=O)N2)c(OC)c1 (mixture of isomers)	-12	-32	0.5
C[C@H](CO)N1C[C@H](C)[C@H](CN(C)S(=O)(=O)c2ccccc2)Oc2ccc(NC(=O)C3CC3)cc2CC1=O	0	0	0.5
C[C@H](CO)N1C[C@H](C)[C@H](CN(C)C)Oc2ccc(NS(=O)(=O)c3ccccc3)cc2C1=O	5	0	1.8
CO[C@H]1CN(C)C(=O)c2cc(C#N)ccc2OCC[C@H]2CC[C@@H](OC)[C@@H](CN(C)C(=O)[C@H]1C)O2	4	10	-4.6
Fc1cccc(-c2ccc([C@@H]3[C@@H]4CN(Cc5nccs5)C[C@H]3N4)cc2)c1	-56	-75	-7.7
O=C(C[C@@H]1CC[C@H](NS(=O)(=O)c2ccccc2)[C@H](CO)O1)N1CCC(Cc2ccccc2)CC1	-7	-4	-1.2
C[C@H](NC(=O)[C@@H]1[C@@H](CO)[C@@H]2Cn3c(ccc(-c4ccccc4)c3=O)[C@H]1N2C)c1ccccc1	0	-4	-2.8
CCC(=O)NC[C@@H]1[C@H](c2ccc(-c3cccc(F)c3)cc2)[C@@H](CO)N1C(=O)CC	-3	-10	0.3
C[C@@H]1CN(C)C(=O)c2cc(N)ccc2O[C@@H]1CN(C)C	-6	-10	-2.2
Cc1cc(C(=O)Nc2cccc3c2O[C@@H](CN(C)C(=O)Nc2cccc4ccccc24)[C@@H](C)CN([C@H](C)CO)C3=O)n(C)n1	-7	-6	0.1
Cc1ccccc1S(=O)(=O)N1[C@@H](C#N)[C@@H](c2ccc(C#CC3CCCC3)cc2)[C@@H]1CO	8	-8	31
Cc1cccc(-c2ccc([C@@H]3[C@H](CO)N4C(=O)CN(C(=O)c5ccccc5)C[C@@H]34)cc2)c1	4	-22	12
CCN1CC(=O)N2[C@H](C1)[C@@H](c1ccc(Br)cc1)[C@@H]2CO	5	-4	-4.2
Cc1noc(C)c1S(=O)(=O)Nc1ccc2c(c1)C(=O)N([C@H](C)CO)C[C@@H](C)[C@@H](CN(C)C(=O)c1ccccc1)OCCCC[C@H](C)O2	1	0	-0.8
COc1ccccc1-c1cn(CC[C@@H]2CC[C@@H](NC(=O)C3CCCC3)[C@H](CO)O2)nn1	-4	-5	-0.3
O=C(Nc1ccc(F)cc1)N1CC(=O)N2[C@H](CO)[C@@H](c3ccc(C#Cc4ccc(F)cc4)cc3)[C@@H]2C1	-6	-30	23
C[C@H](CO)N1C[C@H](C)[C@H](CN(C)C(=O)CCCN(C)C)OCCCC[C@H](C)Oc2ccc(NC(=O)Nc3ccc(F)cc3)cc2C1=O	3	5	-2.1
CN(C)CC(=O)N1[C@@H]2c3cccc(=O)n3C[C@@H]2[C@@H](CO)[C@@H]1C(=O)NCc1ccccc1F	2	0	0.2
CN1C(=O)c2cc(NC(=O)c3ccc(C(F)(F)F)cc3)ccc2OC[C@H]2O[C@H](CC(=O)NCc3ccc4c(c3)OCO4)CC[C@H]21	-6	-16	2.9
COc1ccc2c3c([nH]c2c1)[C@H](CO)N(Cc1ccncc1)CC31CN(C(=O)CN(C)C)C1	1	1	-0.9
CC(=O)NC[C@H]1[C@@H](c2ccc(C#C[C@H](C)O)cc2)[C@@H](CO)N1Cc1ccccn1	2	4	-0.5
COc1ccc(-c2ccc(C3[C@H]4CNC[C@@H]3N4S(=O)(=O)c3ccc(OC)cc3)cc2)cc1 (stereo partly drawn)	-6&-56	-13&-83	-0.2&-13
CCS(=O)(=O)Nc1ccc2c(c1)C(=O)N(C)C[C@@H](OC)[C@@H](C)CN(C(=O)COC)[C@@H](C)CO2	2	3	-0.2
C[C@@H]1CN([C@H](C)CO)C(=O)c2cc(NC(=O)Nc3ccccc3)ccc2O[C@@H]1CN(C)C(=O)Nc1ccc2c(c1)OCO2	3	0	-1.5
CCCNC(=O)N1CC(=O)N2[C@H](C1)[C@@H](c1ccc(C#CCC3CCCC3)cc1)[C@@H]2CO	-33	-58	-3.3
C[C@H]1CN([C@@H](C)CO)C(=O)c2cc(-c3ccccc3)cnc2O[C@@H]1CN(C)C(=O)c1cccc(F)c1	-3	1	-1.5
COCC(=O)N[C@H]1C=C[C@@H](CC(=O)NCc2ccc(Cl)cc2)O[C@H]1CO	3	0	-1.4
CO[C@H]1CN(C)C(=O)c2ccc(NC(=O)C3CC3)cc2OC[C@@H](C)N(Cc2cccc(F)c2)C[C@@H]1C	-5	-13	4.3
C[C@H](CO)N1C[C@H](C)[C@@H](CN(C)Cc2ccc(-c3ccccc3)cc2)Oc2ccc(NC(=O)C3CC3)cc2CC1=O	-20	-40	11
CCC(=O)N[C@@H]1CC[C@@H](CC(=O)NCC2CC2)O[C@H]1CO	0	1	-0.7
CC(C)NC(=O)NCC[C@H]1CC[C@@H](NS(=O)(=O)c2ccccc2)[C@H](CO)O1	-4	-16	-4.8
C[C@@H]1CN([C@H](C)CO)C(=O)c2cccc(NS(=O)(=O)c3cccs3)c2O[C@H]1CN(C)C(=O)Nc1ccccc1	2	1	-3.4
COc1ccc2c3c(n(C)c2c1)[C@@H](CO)N(Cc1ccccc1)CC31CN(S(C)(=O)=O)C1	-3	-9	3.1
COc1ccc2c3c([nH]c2c1)[C@@H](CO)N(Cc1ccncc1)CC31CN(S(C)(=O)=O)C1	1	12	-2.6
O=C(C1CCC1)N1CC2(C1)[C@@H](c1ccccc1)[C@@H](CO)N2CCC(F)(F)F	2	-2	-1.3
CCN(C[C@@H]1[C@@H](c2ccccc2)[C@@H](CO)N1C(=O)COC)C(=O)NC(C)C	2	9	-2.9
C[C@@H](O)C#Cc1ccc([C@@H]2[C@@H](CO)N3CCCCN(C(=O)c4ccc5c(c4)OCO5)C[C@@H]23)cc1	-2	10	-1.0
CCCC(=O)Nc1ccc2c(c1)C(=O)N(C)C[C@@H](OC)[C@H](C)CN(C(=O)CC)[C@@H](C)CO2	0	3	-3.8
CC(C)NC(=O)N1[C@@H](CO)[C@H](c2ccccc2)[C@@H]1CN(C)C(=O)c1cccnc1	2	9	-0.3
C[C@H]1CN([C@@H](C)CO)C(=O)Cc2cc(N(C)C)ccc2O[C@@H]1CN(C)Cc1ccc(C(F)(F)F)cc1	-2	-3	0.9
COc1cccc(NC(=O)N2CC(=O)N3[C@H](C2)[C@@H](c2ccc(Br)cc2)[C@@H]3CO)c1	-6	-25	19

Quoted from above, ten compounds:
SMILES	rRNA inh HTS	rRNA inh HTS OD600	rRNA inh HTS RFP
COCC(=O)N[C@H]1C=C[C@@H](CC(=O)NCc2ccc(Cl)cc2)O[C@H]1CO	3	0	-1.4
CO[C@H]1CN(C)C(=O)c2ccc(NC(=O)C3CC3)cc2OC[C@@H](C)N(Cc2cccc(F)c2)C[C@@H]1C	-5	-13	4.3
C[C@H](CO)N1C[C@H](C)[C@@H](CN(C)Cc2ccc(-c3ccccc3)cc2)Oc2ccc(NC(=O)C3CC3)cc2CC1=O	-20	-40	11
CCC(=O)N[C@@H]1CC[C@@H](CC(=O)NCC2CC2)O[C@H]1CO	0	1	-0.7
CC(C)NC(=O)NCC[C@H]1CC[C@@H](NS(=O)(=O)c2ccccc2)[C@H](CO)O1	-4	-16	-4.8
C[C@@H]1CN([C@H](C)CO)C(=O)c2cccc(NS(=O)(=O)c3cccs3)c2O[C@H]1CN(C)C(=O)Nc1ccccc1	2	1	-3.4
COc1ccc2c3c(n(C)c2c1)[C@@H](CO)N(Cc1ccccc1)CC31CN(S(C)(=O)=O)C1	-3	-9	3.1
COc1ccc2c3c([nH]c2c1)[C@@H](CO)N(Cc1ccncc1)CC31CN(S(C)(=O)=O)C1	1	12	-2.6
O=C(C1CCC1)N1CC2(C1)[C@@H](c1ccccc1)[C@@H](CO)N2CCC(F)(F)F	2	-2	-1.3
CCN(C[C@@H]1[C@@H](c2ccccc2)[C@@H](CO)N1C(=O)COC)C(=O)NC(C)C	2	9	-2.9

New compounds follow.
SMILES	rRNA inh HTS	rRNA inh HTS OD600	rRNA inh HTS RFP
O=C(c1ccc2c(c1)OCO2)N1CC2(C1)[C@H](c1ccccc1)[C@H](CO)N2C(=O)C1CCCC1	-3	-14	3.7
N#Cc1ccc(-c2ccc([C@@H]3[C@@H](CO)N4C(=O)CN(C(=O)C5CCCC5)C[C@@H]34)cc2)cc1	2	-6	4.2
CO[C@@H]1CN(C)C(=O)c2cc(NC(=O)Nc3cccc(Cl)c3)ccc2OC[C@@H](C)N(C(=O)Nc2c(C)noc2C)C[C@H]1C	-12	-11	1.0
CC=Cc1ccc2n(c1=O)C[C@@H]1[C@@H](CO)[C@H](C(=O)NC3CCC3)N(Cc3ccncc3)[C@H]21 (mixture of isomers)	4	5	-0.1
CN(C)CC(=O)N1[C@@H](CO)[C@H](c2ccccc2)C12CN(CC1CC1)C2	2	10	-2.6
COc1ccc2c3c([nH]c2c1)[C@H](CO)N(C)CC31CCN(C(=O)c2ccccc2F)CC1	-5	11	2.5
CCCC#Cc1ccc2c(c1)O[C@H](CN(C)Cc1ccccc1)[C@H](C)CN([C@@H](C)CO)S2(=O)=O	-4	-28	0.7
O=C(O)C[C@H]1C=C[C@H](NC(=O)c2ccccc2F)[C@H](CO)O1	3	5	-1.0
O=C(Nc1cc(F)ccc1F)N1CC(=O)N2[C@H](CO)[C@@H](c3ccc(/C=C/c4ccccc4)cc3)[C@@H]2C1	-4	-7	1.9
O=C(Cc1ccccc1)N1CC(=O)N2[C@@H](CO)[C@@H](c3ccc(Br)cc3)[C@@H]2C1	-3	-12	0.4
O=C(NC1CCCC1)[C@@H]1[C@@H](CO)[C@@H]2Cn3c(ccc(-c4ccccc4)c3=O)[C@H]1N2CCc1ccccc1	-10	-17	4.4
COc1ccc(C#Cc2cnc3c(c2)C(=O)N([C@@H](C)CO)C[C@@H](C)[C@@H](CN(C)C(=O)Nc2cccc(OC)c2)O3)cc1	1	17	4.4
CCCN(C)C[C@@H]1Oc2cc(C#CCC3CCCC3)ccc2S(=O)(=O)N([C@@H](C)CO)C[C@@H]1C	5	-2	-0.4
C[C@H]1CN([C@@H](C)CO)C(=O)c2ccccc2-c2ccccc2CO[C@H]1CN(C)Cc1ccc(Oc2ccccc2)cc1	0	2	-0.9
CCCNC(=O)N1CC2(C1)CN(C(=O)NC(C)C)[C@@H](CO)c1c2c2ccc(OC)cc2n1C	1	-7	-5.6
CN(C)CC(=O)N1[C@H](C(=O)NCc2ccccc2F)[C@@H](CO)[C@@H]2Cn3c(cccc3=O)[C@@H]21	6	1	1.3
CCCC#Cc1ccc2c(c1)[C@H]1[C@H](CCN1C(=O)C1CC1)[C@H](CO)N2	2	6	-1.9
Cc1ccccc1S(=O)(=O)N1C[C@@H]2N[C@H](C1)C2c1ccc(-c2ccc(C#N)cc2)cc1 (stereo partly drawn)	0&-62	8&-72	-2.8&-17
